# 2A firefly: lowers the firefly signal of an FMDV 2A StopGo reporter | HEK cells with a luciferase reporter of 2A StopGo recoding | Potency, µM (highest dose often 57.5 µM), for inactives: at the top dose signal change, negative = less light | 120,000 tested, 0.23% active | AID 1745856; active = well fitted falling curve with a large enough effect; inconclusive = small, poorly fitted or top-dose-only effect; inactive = no such curve, though single readings can be large or run the other way; further: nearly all actives have a fitted effect of over 60% in size; overnight with compound
# 2A Renilla: lowers the Renilla signal of an FMDV 2A StopGo reporter. HEK cells with a luciferase reporter of 2A StopGo recoding. Potency, µM (doses to about 57.5 µM), inactives show at the highest dose signal change, negative = less light. 120,000 tested, 0.32% active; active means well fitted falling curve with a large enough effect; inconclusive means small, poorly fitted or top-dose-only effect; inactive means no such curve, though single readings can be large or run the other way; further: nearly all actives have a fitted effect of over 55% in size; overnight with compound
# * marks the source's active call; other numbers are inactive results; ? = inconclusive; & = joins results of further samples; [ ] = dose if it differs, or a comment. On the % scale 0 is the no-effect control and ±100 the full control effect; potency means the concentration at half of the fitted maximal effect.
SMILES,2A firefly,2A Renilla
COC(=O)C1=C(CN2CCN(c3ccccn3)CC2)NC(=O)NC1c1cccc(OC)c1 (stereo not given),-5%,-5%
Cc1ccc(NC(=O)c2ccc(=O)n(CCOc3ccccc3)n2)cc1F,20%,4%
N#Cc1nc(/C=C/c2cccs2)oc1NC1CC1,55%[activator],3%
Cc1nc2ccc(S(=O)(=O)N(C)CC(=O)Nc3ccc(Br)c(C)c3)cc2s1,16%,9%
Cc1c(Cl)cccc1NC(=O)CCC(=O)NNC(=O)C1CCCCC1,-3%,-5%
Cc1ccc(NC(=O)c2nn(-c3ccccc3)c(=O)c3ccccc23)c(F)c1,-1%,1%
CCN(CC)/C(C)=N/C(=S)Nc1ccccc1,46%[activator],7%
COc1ccccc1-c1noc(CSc2nc(C)c(C)n2C2CCCCC2)n1,?,?
CCOc1cccc(CNCc2cccnc2)c1OCc1cccs1,4%,-1%
O=c1c(-c2cc(-c3ccc(Cl)cc3)nc3c2COc2ccccc2-3)coc2ccccc12,-10%,-11%
COc1ccccc1N1CCN(c2nc(C)c3c(n2)CCCC3=O)CC1,-23%,-20%
COc1cccc2cc(C(=O)Nc3ccc(C)cc3)c(=O)oc12,164%[activator],37%[activator]
Cc1cccc(C(=O)Nc2nc3ncccn3c2-c2ccc(F)c(F)c2)c1,-5%,-1%
CCOc1ccccc1NC(=O)CN1C(=O)CC(c2ccco2)Sc2ccccc21 (stereo not given),30%[activator],115%[activator]
CCCCN1C(=O)C(O)(c2c(C)[nH]c3ccccc23)c2cc(Br)ccc21 (stereo not given),33%[activator],33%[activator]
CCOC(=O)CNC(=O)Cn1nc(N2CCN(c3ccccc3)CC2)ccc1=O,-15%,-15%
CCC(NC(C)=O)c1cccs1 (stereo not given),23%,0%
CC(CCc1ccccc1)NC(=O)C1(c2ccccc2)CCCC1 (stereo not given),-3%,5%
CC(=O)Nc1ccc(NC(=O)CC(C)c2ccccc2)cc1 (stereo not given),9%,-4%
Cn1cnc2c1c(=O)n(CCCn1nnc(-c3cccc(Cl)c3)n1)c(=O)n2C,18%,2%

# The closing 7 records of the section before are carried over, then new ones follow.
SMILES,2A firefly,2A Renilla
CCOc1ccccc1NC(=O)CN1C(=O)CC(c2ccco2)Sc2ccccc21 (stereo not given),30%[activator],115%[activator]
CCCCN1C(=O)C(O)(c2c(C)[nH]c3ccccc23)c2cc(Br)ccc21 (stereo not given),33%[activator],33%[activator]
CCOC(=O)CNC(=O)Cn1nc(N2CCN(c3ccccc3)CC2)ccc1=O,-15%,-15%
CCC(NC(C)=O)c1cccs1 (stereo not given),23%,0%
CC(CCc1ccccc1)NC(=O)C1(c2ccccc2)CCCC1 (stereo not given),-3%,5%
CC(=O)Nc1ccc(NC(=O)CC(C)c2ccccc2)cc1 (stereo not given),9%,-4%
Cn1cnc2c1c(=O)n(CCCn1nnc(-c3cccc(Cl)c3)n1)c(=O)n2C,18%,2%
Cc1ccc(F)cc1S(=O)(=O)N1CCC(c2nc3ccccc3s2)CC1,-7%,-11%
O=C1NC2(CCCCCCC2)NN1c1ccc(Br)cc1,76%[activator],23%
COc1ccc(CCNC(=O)c2cc(=O)c3ccccc3o2)cc1OC,-21%,-13%
CCCN(C(=O)Cn1ncc2c([nH]c3ccc(C)cc32)c1=O)c1ccccc1C,-9%,-10%
Cc1ccc(OCC(=O)Nc2nnc(S(=O)(=O)N3c4ccccc4CC3C)s2)cc1 (stereo not given),-8%,-13%
CCCCn1nc(C(=O)Nc2ccc(OC)c(Cl)c2)c2ccccc2c1=O,11%,11%
Cc1cc(OCC(=O)Nc2ccc(CCO)cc2)c2c(C)cc(=O)oc2c1,0%,28%
Cc1ccc(S(=O)(=O)N2CCCc3cc(NC(=O)c4ccc(F)c(F)c4)ccc32)cc1,-10%,6%
COc1cccc2cc(C(=O)NC3CC(C)(C)NC(C)(C)C3)c(=O)oc12,-9%,-3%
Cn1c(-n2cccc2)c(-c2c(-c3cccc4ccccc34)[nH]c3c2c(=O)[nH]c(=O)n3C)c(=O)[nH]c1=O,-2%,-11%
CCN(CC)c1cc2c(cc1F)c(=O)c(S(=O)(=O)c1ccc(C)cc1)cn2Cc1ccc(F)cc1,5%,8%
CC1=C(C(=O)OC(C)C)C(c2ccc(C(F)(F)F)cc2)NC(=O)N1 (stereo not given),4%,10%
CCNC(=S)NN1CCN(C)CC1,24%,16%
COc1ccc2cc(COC(=O)C3CCN(S(=O)(=O)c4ccccc4F)CC3)ccc2c1,19%,-12%
O=C(/C=C/NCc1ccccc1)C(F)(F)F,15%,8%
Cc1nc(SCC(=O)Nc2ccccc2)oc1C,26%,6%
CCSc1nnc(NC(=O)c2cc(=O)c3cc(C)ccc3o2)s1,-15%,-5%
CCc1ccc(CNCc2c(C(=O)O)n(Cc3cccc(F)c3)c3cc(OC)ccc23)cc1,?,50%[activator]
COc1ccc(C(=O)OCC(=O)c2ccc3c(c2)OCCO3)cc1,34%[activator],17%
O=C(Nc1ccc(Cl)cc1C(F)(F)F)C(c1ccccc1)c1ccccc1,12%,-5%
O=C(CCc1ncc(-c2ccc(Cl)cc2)o1)Nc1ccccc1,17%,35%[activator]
CCc1ccc(NC(=O)COc2ncnc3ccccc23)cc1,0%,-1%
CC(C)(CC(=O)O)CC(=O)Nc1cccc2ccccc12,-5%,10%
Cc1ccc(-c2nn(CC(=O)Nc3ccc(C(=O)N(C)C)cc3)c(=O)c3ccccc23)cc1,12%,4%
CCOC(=O)O[C@]1(C(=O)OCCl)CC[C@H]2[C@@H]3CCC4=CC(=O)C=C[C@]4(C)[C@H]3[C@@H](O)C[C@@]21C,21%[11.5 µM],9%
CC(=O)Nc1c(C)nn(-c2ccccc2)c1N1CCC(C(=O)NCc2ccc(F)cc2)CC1,-23%,6%
CCOc1ccc(NC(=O)c2nn(CC(C)C)c(=O)c3ccccc23)cc1S(=O)(=O)N1CCCC1,12%,0%
CCCc1nc(N2CCOCC2)c(C#N)c2c1CCCC2,-20%,?
COC(=O)c1ccc(OC(=O)c2cc(-c3ccc(OC)cc3)nc3c(C)cc(C)cc23)cc1,2%,-6%
CC(C)Cc1cc(C(=O)Nc2cc(Cl)ccc2Cl)no1,-15%,-14%
CCc1cnc2c(c1SCC(=O)NCc1ccc(C)cc1)c(=O)n(C)c(=O)n2C,7%,-9%
Cc1c(CC(=O)N2CCN(C(=O)C3COc4ccccc4O3)CC2)c(=O)oc2c(C)c(O)ccc12 (stereo not given),22%,23%
CCOC(=O)c1ccccc1NC(=O)Cn1cc(C(=O)c2cccc(OC)c2)c(=O)c2ccc(C)nc21,-16%,-14%
COc1cccc(CNC(=O)Cn2nc(C)c3sc4ccccc4c3c2=O)c1OC,-7%,-11%
CCCN(CCC)S(=O)(=O)c1nc(C)c(Cl)c(C)c1C#N,7%,23%
CCOc1cc(/C=C2/NC(=O)NC2=O)cc(Cl)c1OCc1ccc(Cl)c(Cl)c1,3%,2%
CCOc1ccc(S(=O)(=O)Nc2ccccc2)cc1-c1nc2c(C(C)(C)C)nn(C)c2c(=O)[nH]1,-22%,143%[activator]
O=C(NC/C(=N/NC(=O)c1cccnc1)c1ccccc1)c1ccccc1,142%[activator],30%[activator]
CC(=O)c1ccc(SCC(=O)NCCC2=CCCCC2)c(F)c1,15%,6%
COc1ccccc1NC(=O)Cn1ccc2c(Cl)cccc21,15%,1%

# Copied from the listing (2 entries):
SMILES,2A firefly,2A Renilla
O=C(CCc1ncc(-c2ccc(Cl)cc2)o1)Nc1ccccc1,17%,35%[activator]
CCc1ccc(NC(=O)COc2ncnc3ccccc23)cc1,0%,-1%

# (continued)
SMILES,2A firefly,2A Renilla
CN(C)S(=O)(=O)N1CCC(n2cnc3cccnc32)CC1,-2%,10%
O=C(CCc1nnc2ccc(NCc3ccco3)nn12)Nc1ccc2c(c1)OCO2,40%[activator],14%
COc1ccc(-n2nnnc2C2CCN(S(=O)(=O)c3cc(OC)ccc3OC)CC2)cc1,?,25µM*
CN(C)c1ccc(NC(=O)N2CCN(c3cnccn3)CC2)cn1,8%,-2%
CC(Oc1ccc(F)cc1)C(=O)Nc1ccc(N2CCN(C)CC2)nc1 (stereo not given),-11%,-9%
CCn1c(/C=C/c2cn(C)c3ccccc23)nc2ccccc2c1=O,135%[activator],1%
CC(C)C(Br)C(=O)Nc1ccc(Cl)c(Cl)c1 (stereo not given),0%,14%
CCCCN(CCCC)Cc1cc(=O)oc2cc(C)c(O)cc12,?,?
COc1ccccc1N1CCN(c2nc(CSc3ccc(C)cc3)cc(=O)[nH]2)CC1,0%,4%
CC(C)c1nc2cc(NC(=O)NCc3ccccc3)ccc2o1,1%,?
COc1cccc(CNC(=O)c2ccc(CN3CC(=O)N4CCCCC4C3=O)cc2)c1 (stereo not given),49%[activator],64%[activator]
Oc1ccccc1-n1cccc1,23%,14%
CC(NCC(=O)NC1CCCCC1)c1cccc(C(F)(F)F)c1 (stereo not given),-1%,-11%[1.06 µM]
CC(C)Cc1nnc(NC(=O)c2ccc3c(ccn3C)c2)s1,199%[activator],13%
Cc1ccc(S(=O)(=O)Nc2cccc(-c3ccc(N4CCCCC4)nn3)c2)s1,121%[activator],160%[activator]
N#C/C(=C/c1ccccc1)S(=O)(=O)c1ccc(F)cc1,1%,-5%
Cc1noc(/C=C/c2ccco2)c1S(=O)(=O)N1CCC(C(=O)Nc2ccc(F)c(Cl)c2)CC1,?,?
COc1ccc(NC(=O)COC(=O)c2nn(C)c(=O)c3ccccc23)cc1Cl,8%,-4%
CC(=O)NC1=NN(C(C)=O)C2(S1)C(=O)N(CCOc1ccccc1C)c1ccc(Cl)cc12 (stereo not given),-14%,164%[activator]
CCN(Cc1ccccc1)S(=O)(=O)c1cc(Br)cc2c1N(C(=O)C1CC1)CC2,-27%,115%[activator]
O=C(CCC1N=C2c3ccccc3N=C(SCc3ccc(Cl)cc3)N2C1=O)NC1CCCCC1 (stereo not given),-20%,4%
COc1cccc(CN)c1OCC(C)C,-7%,-7%
O=C1CN(C(=O)c2cn(Cc3ccccc3)c3ccccc23)CCN1,-14%,-4%
Cc1ccc(Nc2nc(CSc3nnnn3C3CC3)cs2)cc1,110%[activator],15%
CCCCC1CCC(C(=O)Nc2ccc(OC)c3ncccc23)CC1 (stereo not given),?,?
COc1cccc2cc(-c3csc(Nc4ccccc4Br)n3)c(=O)oc12,61%[activator],27%
CCOc1ccc(CN2CCCC2c2cccc(C)c2)cc1 (stereo not given),-14%,-14%
Cc1ccc(F)cc1NC(=O)C(C)C,3%,-1%
Cc1ccc(S(=O)(=O)N2CCN(C(=O)c3nn(C(C)C)c(=O)c4ccccc34)CC2)cc1C,-1%,-2%
Cc1oc2c(cc(NS(=O)(=O)c3ccc(C(C)C)cc3)c3ccccc32)c1C(=O)O,-5%,-4%
Cc1ccc(OCC(=O)Nc2nc(-c3ccc(Br)s3)ns2)cc1C,-1%,-11%
N#CCSc1ccccc1C(=O)O,14%,-5%
Cc1ccc(CNC(=O)Cn2c(=O)n(-c3ccc(C)cc3)c(=O)c3c2c2cc(C)ccc2n3C)cc1,-6%,-8%
O=C(Nc1c(N2CCCC2)c2ccccc2oc1=O)c1ccc(Br)o1,44%[activator],18%
O=C(Cc1scnc1-c1cccs1)NCCc1ccccc1,9%,-8%
O=C(COc1ccc(Br)cc1CO)Nc1ccccc1,180%[activator],17%
CCOC(=O)CSc1nnc(-c2ccc(OC)cc2)o1,?,2%
CC(=O)c1ccc(NC(=O)c2nn(C)c3c2COc2ccccc2-3)cc1,28%&5%,-4%&-3%
Cc1cccc(-n2ccc(C=O)c2)c1C,6%,-19%[1.06 µM]
COc1cc(NC(=O)c2c(C)nn(-c3ccc(F)cc3)c2-n2cccc2)cc(OC)c1,-2%,-2%
COc1ccc(C2CC(=O)C=C(Nc3ccc(Cl)cc3)C2)cc1 (stereo not given),7%,24%
O=C(Oc1ccc2c(-c3cc4ccccc4oc3=O)cc(=O)oc2c1)N1CCOCC1,8%,4%
CN(C)Cc1ccccc1CNC(=O)Cc1nn(C)c(=O)c2ccccc12,-6%,-10%
Cn1cnc2c(=O)oc3ccc(S(=O)(=O)N4CCN(c5cccc(C(F)(F)F)c5)CC4)cc3c21,-4%,2%
COc1cccc(-n2cc(C(=O)OCc3ccc(Cl)cc3)c3ccccc3c2=O)c1,-22%,-8%
Cc1ccccc1NC(=O)c1oc2c(c1C)-c1nn(Cc3cccc(Cl)c3)cc1CC2,13%,-8%
CCCn1nc(C(=O)Nc2nc(C)cs2)c2ccccc2c1=O,0%,18%
CCn1cnc2c1c(=O)n(CC(=O)OCCOc1ccccc1)c(=O)n2Cc1ccccc1,-11%,-7%
CN1CCC(NC(=O)CCc2ncc(-c3ccccc3)o2)CC1,7%,-13%
CCC12CN3CC(C)(CN(C1)C3c1ccc(O)cc1O)C2=O (stereo not given),-8%,-6%
Cc1ccc2c(Cl)cc(Cl)c(OCC(=O)NCC(F)(F)F)c2n1,2%,-3%
COC(=O)COc1c(Br)cc(/C=C2/NC(=O)NC2=O)cc1Br,-4%,2%
Cc1ccc(NCc2cc3cccc(C)c3[nH]c2=O)c(C)c1,47%[activator],-6%
CCN(CC)S(=O)(=O)c1ccc(C)c(NC(=S)Nc2ccccc2C(C)(C)C)c1,-9%,36%[activator]
Cc1cc(C(=O)NCc2ccccc2Cl)c2c(C)nn(-c3ccccc3)c2n1,3%,7%
CN(Cc1ccccc1)C(=O)c1cc(-c2cccc(Cl)c2)n[nH]1,61%[activator],132%[activator]
CCOc1cc2c(cc1OCC)C(CC(=O)OC)N(C(=O)Nc1cc(OC)ccc1OC)CC2 (stereo not given),28%,1%

# High-throughput results from PubChem.

# Hits appear at their usual frequency (roughly 0.53% active in at least one column).
